Sfp inh: inhibitors of Bacillus subtilis Sfp phosphopantetheinyl transferase; Potency, µM, without a hit: max response, negative = inhibition, most hits filed as inhibitors; AID 1490; Q9F4F7; hit rate 3.5% among 310,000; Biochemical Sfp PPTase activity, qHTS; active = well fitted inhibition curve with a large enough effect; inconclusive = small, poorly fitted or top-dose-only effect, or another doubt; inactive = no such curve, though single readings can be large or run the other way;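 also: the enzyme is Sfp with the accession as filed and its product quenches rhodamine fluorescence; potency is read from the fitted curve at half-maximal effect; 0% = enzyme reaction without inhibitor and -100% = no enzyme wells; top concentration of the series not given in the record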
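Fluorescence-quenching assay: 15 nM Sfp-PPTase preincubated 15 min at room temperature with compound, then 5 uM rhodamine-CoA and 12.5 uM BHQ-2-labelled YbbR peptide added. Fluorescence (ex 525/em 598 nm) read at start and after 30 min; difference gives rate.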
PINK1 modulator: changes PINK1 expression. Potency, µM (top dose mostly 76.6 µM), inactives show top-dose activation (PINK1 increase), usual class: activators. PINK1 immunofluorescence, high-content cytometry, 24 h. AID 624263. hit rate 0.2% among 410,000; active = well fitted activation curve with a large enough effect; inconclusive = small, poorly fitted or top-dose-only effect; inactive = flat fitted curve, though single readings scatter; cell line not stated here;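 also: potency is read from the fitted curve at half-maximal effect; % of control where 0% means no effect; nearly all actives have a fitted effect of over 65% in size; a mitochondrial uncoupler was the plate control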
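Decision-based qHTS: stable cells, 24 h exposure to five compound concentrations, CCCP as control. Fixed cells stained for PINK1 plus nuclear, mitochondrial and cell markers, cytometer read.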
TRPV1 potentiator: human TRPV1 potentiation; Q8NER1; potentiation, % at 8.33 µM; AID 540277; hit rate 0.02% among 320,000; TRPV1-expressing cells, Fluo-8 calcium influx, capsaicin EC20 potentiation; host cell line not named in the record; control for the full effect not named in the record; active means potentiation above 80%; inconclusive means 30% to 80%; inactive means below 30%; also: 0% is about no effect
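Cells expressing TRPV1 were dye-loaded with Fluo-8 and read kinetically: 10 s baseline, 3 min after compound (agonist portion), then 2 min after EC20 capsaicin (allosteric enhancer portion). Calcium-bound dye fluorescence at 480/520 nm.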
CtBP-E1A blk: inhibitors of CtBP/E1A interaction; AlphaScreen GST-E1A/His-CtBP binding, 1536-well; hits give low values; control for the full effect not named in the record; activity change, % (test concentration not listed); hit rate 0.49% among 340,000; in the data active means activity change below about -65%; inconclusive means about -30% to -65%; inactive means above about -30%; also: % is scaled to controls: 0 for no effect and ±100 for the full control effect; compound concentration not given in the record
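In 5 uL wells, 23 nL compound meets equimolar GST-E1A and His-CtBP (5X stock 125 nM each) for 2 h, 37 °C. Beads (5X, 50 ug/mL) then 1 h, 37 °C, dark.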
D2 agonist: human D2 receptor agonism in beta-arrestin assay. P14416. DiscoveRx PathHunter D2 beta-arrestin, luminescence, 90 min; 100% = 57 uM dopamine signal. activation, % (test concentration not listed). hit rate 0.084% among 360,000; in the data active = activation above about 40%; inconclusive = about 15% to 40%; inactive = below about 15%; also: compound concentration not given in the record; the text of the record calls up to 30% inactive
Target sequence (P14416 whole entry, looked up): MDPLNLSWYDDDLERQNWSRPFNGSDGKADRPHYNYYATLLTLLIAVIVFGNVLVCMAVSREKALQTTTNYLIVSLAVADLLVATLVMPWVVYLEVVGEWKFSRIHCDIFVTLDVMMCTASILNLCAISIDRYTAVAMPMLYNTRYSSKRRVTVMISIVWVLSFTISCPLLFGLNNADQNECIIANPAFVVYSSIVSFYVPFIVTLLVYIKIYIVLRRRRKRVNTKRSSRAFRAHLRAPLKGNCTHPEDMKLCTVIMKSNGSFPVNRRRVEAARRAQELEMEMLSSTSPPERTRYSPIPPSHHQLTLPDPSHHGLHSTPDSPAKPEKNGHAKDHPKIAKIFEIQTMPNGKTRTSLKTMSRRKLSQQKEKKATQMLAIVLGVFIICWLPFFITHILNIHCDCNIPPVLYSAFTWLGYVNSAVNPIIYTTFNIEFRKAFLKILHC
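DiscoveRx PathHunter D2 beta-arrestin cells (2,100/well) attached overnight, then compound-stimulated 90 min at 37 C in HBSS/10 mM HEPES/0.1% Tween-20 buffer; beta-galactosidase complementation read by luminescence after 1 h at ambient temperature. Dopamine 57 uM final (EC100) as control.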
D2 potentiator: human D2 receptor positive allosteric modulation | DiscoveRx D2 beta-arrestin cells, luminescence, 90 min; 100% = 57 uM dopamine signal | potentiation, % (concentration not given with the values) | hit rate 0.23% among 360,000; active = potentiation of 50% or more; inconclusive = 30% to 50%; inactive = 30% or less;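 also: compound concentration not given in the record; tested on top of an EC20 dose of dopamine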
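PathHunter D2 cells, attached overnight at 37 deg C, received compound in DMSO plus dopamine at EC20 (50 nM final) for 90 min at 37 deg C. Beta-arrestin recruitment was read as luminescence after 1 h with detection reagent at ambient temperature.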
Six1-Eya2 blk: Six1/Eya2 interaction inhibition; AlphaScreen GST-Six1/His-Eya2 binding, biochemical; hits give low values; control for the full effect not named in the record; activity change, % (test concentration not listed); hit rate 0.56% among 360,000; AID 651725; in the data active = activity change below about -65%; inconclusive = about -30% to -65%; inactive = above about -30%; also: % is scaled to controls: 0 for no effect and ±100 for the full control effect; compound concentration not given in the record
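AlphaScreen luminescence read after one hour at 37 °C in darkness. Pin-transferred compounds met GST-Six1 and His-Eya2 protein (5X stock 250 nM/500 nM) plus glutathione donor and Ni-chelate acceptor beads (5X, 50 ug/mL).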
Active calls of the source: *; ? = inconclusive; / = not tested or not shown; [ ] = dose if it differs, or a comment.

SMILES | Sfp inh | PINK1 modulator | TRPV1 potentiator | CtBP-E1A blk | D2 agonist | D2 potentiator | Six1-Eya2 blk
CC(C)c1ccc(NC(=O)CN(C)C2=NS(=O)(=O)c3ccccc32)cc1 | / | 2.1% | / | 0 | -2.1 | -12 | 1
COc1ccc2nc(NC(=S)N(C)C)sc2c1 | ? | 4.4% | 5 | -25 | -4.8 | -4 | -7
Cc1cc(S(=O)(=O)N2CCC(NC(=O)C34CC5CC(CC(C5)C3)C4)CC2)ccc1-n1cnnn1 | 17% | 3.4%[38.3 µM] | -12 | 12 | -3.9 | -18 | 5
CN(c1ccccc1)S(=O)(=O)c1ccc(NC(=O)CC(=O)c2ccccc2)cc1 | / | ? | / | -2 | 2.5 | -4 | 1
CC(=O)OC1c2ccccc2C(=O)N1c1ccccc1C (stereo unspecified) | -3% | 0.6% | -7 | 3 | -2.6 | -3 | 1
Cc1nc2ccc(S(=O)(=O)N(C)CC(=O)NCc3ccc4c(c3)OCO4)cc2s1 | 19% | -0.7% | -6 | -4 | -6.5 | -13 | -5
O=S(=O)(c1ccc(-c2cc(C(F)(F)F)on2)s1)N1CCCC1 | -7% | 5.5% | -17 | 8 | 7.6 | 1 | 14
COCCNC(=O)CCc1nnc(Cc2ccc(-c3ccccc3)cc2)o1 | 15% | 1.1% | 9 | / | -1.2 | 5 | 3
O=C(Nc1nc2ccc(Br)cc2s1)c1ccco1 | 13% | 4.2% | -15 | -7 | -1.9 | -5 | 5
NC1=NC(=O)C(CC(=O)c2ccc(Cl)cc2)S1 (stereo unspecified) | -5% | 6.5% | 9 | 0 | -4.2 | 6 | 0
Cc1ccc(C)c(OC(=O)c2cccnc2)c1 | 5% | 0.4% | 1 | / | -2.8 | -23 | 6
C/C(N)=C(/C#N)C(=O)COC(=O)CCC1CCCC1 | 13% | -2.3% | 10 | 3 | 0.6 | -1 | 3
CCCCn1c(-c2ccccc2)nnc1-c1ccccc1 | 6% | 0.0% | -5 | 5 | -1.7 | -1 | 2
CCCCCCSc1ccc([C@H]2N[C@@](CC(C)C)(C(=O)OC)[C@H]3C(=O)N(CC)C(=O)[C@@H]23)cc1 | / | 4.1% | -5 | 2 | -3.4 | -7 | -2
CCOC(=O)Cc1csc(NC(=O)CSc2ncnc3c2cnn3-c2ccccc2Cl)n1 | 21% | 0.3% | -1 | 0 | -3.0 | 1 | -15
COc1ccccc1NC(=O)C[n+]1ccccc1C | 9% | -1.3% | 0 | 2 | -1.1 | -12 | 1
Cc1nn(Cc2ccc(F)cc2)c(C)c1NC(=O)c1nn(C)cc1Cl | 2% | -1.0% | 8 | -9 | -3.0 | -12 | -4
COc1ccc(OCc2cccc(C(=O)Nc3ccc(CN4CCCCC4)cc3)c2)cc1 | -18% | 1.1% | -2 | -9 | -3.6 | -20 | -16
O=C(c1cc(-c2ccc(Cl)c(Cl)c2)on1)N1CCCCCC1 | -7% | 19% | -13 | -16 | 3.2 | -1 | -11
CC(C)CN(C(=O)COC(=O)CCCc1c[nH]c2ccccc12)c1c(N)n(Cc2ccccc2)c(=O)[nH]c1=O | 22% | 4.2% | 15 | -3 | -1.6 | 14 | 11
COC(=O)CN1C(=O)C(O)(CC(=O)c2ccccc2)c2ccccc21 (stereo unspecified) | 7% | 0.1% | 10 | 0 | 1.3 | 3 | 7
Nc1ccc(OCc2ccccc2)cc1 | 12% | 2.4% | 5 | -23 | -3.1 | -7 | -14
C=CCN1CCOc2ccc(C)cc2S1(=O)=O | / | 0.3% | / | 3 | -2.1 | -4 | 0
CCOC(=O)c1c(C)[nH]c(C(=O)COC(=O)CCC(=O)c2ccc3c(c2)OCCO3)c1C | 5% | -2.4% | 21 | -8 | 0.8 | -1 | -7
CS(=O)(=O)CCC(C(=O)OCc1ccc(Cl)cc1)N1C(=O)c2ccccc2C1=O (stereo unspecified) | 0% | 0.2% | -4 | 1 | -1.1 | -10 | 11
COc1ccc([C@H]2CC(=O)C=C(/C=C/c3ccc(Cl)cc3)C2)cc1 | / | 0.8% | 6 | -1 | -5.8 | -3 | 1
CCOC(=O)C1CCCCN1C(=O)c1ccc2nc(Cc3ccc(OC)cc3)oc2c1 (stereo unspecified) | 4% | -0.4% | -3 | 6 | ? | 2 | -5
CCOc1ccc(C(=O)N2CCN(c3ncccn3)CC2)cc1 | / | 1.2% | / | / | -5.6 | -21 | 4
CCN(CC)CCOc1c(Br)ccc2c1sc1nc3n(c(=O)c12)CCC3 | 0% | -2.6% | -1 | -3 | -2.4 | -34 | -3
O=C(NN=C1CCCC1)c1cccs1 | -4% | 3.7% | -19 | 6 | -2.7 | -9 | -1
O=C(NC1CCCCC1)N1CCN(c2ccccc2)CC1 | 13% | -1.4% | -7 | 3 | 0.3 | 6 | 2
CC(C)(C)n1nc2c(c1NC(=O)c1ccccc1S(=O)(=O)C(F)F)CS(=O)(=O)C2 | 20% | 2.2% | 0 | -28 | -4.0 | -46 | -21
O=[N+]([O-])c1nn(-c2ccc3c(c2)OCCO3)n(O)c1=Nc1ccccc1 | 1% | -2.0% | 18 | 0 | ? | ? | -28
Cn1c(SCc2ccc(F)cc2)nnc1-c1ccncc1 | ? | 3.5% | 2 | -1 | 2.0 | -13 | 2
Cc1ccc(/C=N/NC(=O)c2nnn(-c3nonc3N)c2CN(C)C)o1 | 2% | 4.3% | 2 | 5 | -5.5 | -6 | 0
CCO[C@H]1OC(C(=O)N2CCCCCCC2)=C[C@@H](C2CCCCC2)[C@@H]1CCCO | 0% | 1.0% | -5 | 1 | -1.4 | -8 | -4
CCN(CC)CC(O)COCCC12CC3CC(CC(C3)C1)C2 (stereo unspecified) | -2% | -2.4%[38.3 µM] | -5 | 2 | 0.7 | -13 | 2
Cn1c(SCC(=O)NCCN2C(=O)CSC2=O)nnc1-c1ccccc1 | 27% | -0.7% | 13 | 25 | 1.1 | 1 | 12
Cc1nc(SCC(=O)c2cc3ccccc3oc2=O)c(C#N)c(-c2ccccc2)c1C(=O)Nc1ccccc1 | 6% | ? | 14 | 0 | -2.8 | -7 | 1
Cc1ccc(C(=O)OC(C)C(=O)NC2CCCCC2C)s1 (stereo unspecified) | / | 1.0% | -3 | 22 | -5.5 | -9 | 4
CSc1ncccc1C(=O)N1CCN(S(=O)(=O)c2ccc(F)cc2)CC1 | 11% | -0.1% | -8 | -8 | -0.2 | -9 | 2
CSc1nc(O)c(Cc2ccccc2)c(=O)[nH]1 | -5% | 1.1%[38.3 µM] | -3 | 5 | 0.9 | -14 | 7
CC(c1ccccc1)n1c(N2CCN(C)CC2)nc2c1c(=O)[nH]c(=O)n2C (stereo unspecified) | 7% | -1.0% | -13 | / | -4.2 | -21 | -3
COc1ccc(CC(=O)Nc2nc3ccc(F)cc3s2)cc1S(=O)(=O)N1CCOCC1 | -1% | 2.0% | 16 | -15 | 1.7 | -1 | -11
O=C(CCNC(=O)c1ccc(Br)cc1)NCCCc1ccccc1 | / | -0.1% | -14 | 2 | -0.3 | -11 | 2
CCCNC(=O)C1(C)CCN(Cc2ccc(-n3ccnc3)cc2)C1 (stereo unspecified) | / | -0.7% | / | -3 | -6.4 | -13 | 8
CCN(CC)c1nc2n(c(=S)n1)CCS2 | 8% | 11%[38.3 µM] | 22 | -2 | -0.3 | -8 | -14
COc1ccc(N(CC(=O)Nc2cccnc2)S(=O)(=O)c2ccc(C)cc2)cc1Cl | 3% | 6.1% | 4 | 1 | -1.1 | -20 | -5
Cc1ccc(S(=O)(=O)N2CCN(C(=O)c3sccc3-c3ccccc3)CC2)cc1 | 9% | -2.1% | -7 | 4 | -1.6 | -4 | -3
CN(C)CCCNC(=O)c1ccc(=O)[nH]n1 | -12% | -1.8% | -3 | -2 | -3.8 | -11 | -4
Additional compounds:
SMILES | Sfp inh | PINK1 modulator | TRPV1 potentiator | CtBP-E1A blk | D2 agonist | D2 potentiator | Six1-Eya2 blk
O=C1c2ccccc2S(=O)(=O)N1Cc1ccccc1[N+](=O)[O-] | 7% | 0.2% | 1 | / | -1.6 | -4 | -6
CC1CCc2c(sc3ncnc(NCCN4CCOCC4)c23)C1 (stereo unspecified) | -11% | -0.1% | -11 | 3 | -0.9 | -9 | 0
CCCS(=O)(=O)NC(=O)C1(C)CCN(C(=O)c2cc(F)cc(F)c2)C1 (stereo unspecified) | / | 1.1% | / | 6 | -6.8 | -12 | 0
CCOc1ccc(N(C)S(=O)(=O)c2ccc3[nH]cc(C(=O)NCCCOC)c(=O)c3c2)cc1 | 15% | 1.2% | 8 | / | 3.5 | -2 | 10
COc1ccc(CNC(=O)Cn2nc([N+](=O)[O-])c(Br)c2C)cc1 | -7% | 3.8% | 12 | 5 | 6.3 | -7 | 10
Cc1ccc(OCC(=O)Nc2cccc(S(=O)(=O)NC3=NCCCCC3)c2)cc1C | 4% | -0.8% | 19 | -12 | -4.5 | -6 | -5
COc1ccc(-c2csc3ncnc(NCCN4CCOCC4)c23)cc1 | -1% | 19% | 2 | -7 | -3.2 | -2 | -3
Cc1ccccc1C(=O)NC1CC2CCCC(C1)N2C(=O)Nc1ccccc1 (stereo unspecified) | 5% | 3.6% | 25 | 6 | 4.3 | 1 | 0
O=C(C(Sc1ccccc1)c1ccccc1)N1CCN(c2ccccc2F)CC1 (stereo unspecified) | 14% | 0.2% | -5 | 8 | -3.1 | -2 | 0
CCCC1=NN(C(=O)CCc2ccccc2O)C(O)(C(F)(F)F)C1 (stereo unspecified) | 6% | 0.5% | 1 | 2 | -1.0 | -15 | 3

Source: PubChem
